Lassa entry inh: Lassa virus entry inhibition; Lassa virus pseudotype entry inhibition, cell reporter; control for the full effect not named in the record; Potency, µM (titrated, usually from 37.9 µM), for inactives: at the highest dose activity change, negative = inhibition, actives largely listed as inhibitors; hit rate 1.2% among 300,000; AID 540256; active means well fitted inhibition curve with a large enough effect; inconclusive means small, poorly fitted or top-dose-only effect, or effect the other way; inactive means flat fitted curve, though single readings scatter; tested in HEK293 cells; further: on the % scale 0 is the no-effect control and ±100 the full control effect; nearly all actives have a fitted effect of over 50% in size; luciferase read-out
Cruzain inh Det: blocks cruzain activity in presence of Triton detergent; Potency, µM, inactives show max response, negative = inhibition, actives largely listed as inhibitors; P25779; purified cruzain, Z-FR-AMC fluorescence, 0.01% Triton; hit rate 0.43% among 200,000; active means well fitted curve in the direction sought with a large enough effect; inconclusive means small, poorly fitted or top-dose-only effect, or another doubt; inactive means no such curve, though single readings can be large; an effect the other way counts as inactive or inconclusive;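 further: plate controls were neutral wells for no effect and buffer without enzyme for full effect; nearly all actives have a fitted effect of over 40% in size; top concentration of the series not given in the record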
Target sequence (P25779 123-467 limits assumed): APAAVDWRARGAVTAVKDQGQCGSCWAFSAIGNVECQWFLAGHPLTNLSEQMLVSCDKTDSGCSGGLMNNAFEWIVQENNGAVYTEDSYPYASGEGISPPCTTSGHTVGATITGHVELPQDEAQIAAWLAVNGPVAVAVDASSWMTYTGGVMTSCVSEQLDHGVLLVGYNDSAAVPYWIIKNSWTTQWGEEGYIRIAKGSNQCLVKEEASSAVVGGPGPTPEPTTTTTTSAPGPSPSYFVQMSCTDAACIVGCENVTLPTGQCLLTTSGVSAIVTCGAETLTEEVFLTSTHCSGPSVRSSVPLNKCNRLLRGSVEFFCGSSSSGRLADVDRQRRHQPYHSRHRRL
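Z-FR-AMC hydrolysis (2 uM substrate) by cruzain (1.5 nM) monitored kinetically at ex 360/em 450 nm after 15 min room-temperature compound exposure; 0.01% Triton X-100, pH 5.5, 5 mM DTT.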
SARS PLpro yeast: SARS-CoV PLP inhibition in yeast. S. cerevisiae expressing SARS-CoV PLpro, growth rescue; control for the full effect not named in the record. Potency, µM (doses to about 32.9 µM), for the others: at the highest dose activity, positive = growth rescue. AID 485353. hit rate 0.19% among 330,000; further: 0% is about no effect; nearly all actives have a fitted effect of over 55% in size; growth read by luminescence after 48 h
2A StopGo: lowers the luciferase signal of an FMDV 2A StopGo reporter. human cells with a luciferase reporter of 2A StopGo recoding; control for the full effect not named in the record. Potency, µM (series often up to 57.9 µM), for inactives: at the highest dose signal change, negative = less light. hit rate 1.2% among 410,000. AID 1159524; active = well fitted falling curve with a large enough effect; inconclusive = small, poorly fitted or top-dose-only effect; inactive = no such curve, though single readings can be large or run the other way; tested in HEK293T cells; further: on the % scale 0 is the no-effect control and ±100 the full control effect; nearly all actives have a fitted effect of over 45% in size; luciferase light after 4 h
Marburg entry inh: inhibitors of Marburg virus binding or cell entry; Marburg virus pseudotyped entry inhibition, cell reporter; control for the full effect not named in the record; about a third of the inactives were read at about 46 µM; Potency, µM (highest dose often 37.8 µM), for the others: at the top dose activity change, negative = inhibition, most hits filed as inhibitors; hit rate 1.8% among 300,000; AID 540276; active = well fitted inhibition curve with a large enough effect; inconclusive = small, poorly fitted or top-dose-only effect, or effect the other way; inactive = flat fitted curve, though single readings scatter; tested in HEK293 cells; about a fifth of its hits are not listed in these tables; further: on the % scale 0 is the no-effect control and ±100 the full control effect; luciferase read-out
RE007 growth inh: less growth of the S. pombe RE007 Vpr strain. S. pombe RE007 Vpr strain, BacTiter-Glo ATP luminescence, 24 h; control for the full effect not named in the record. Potency, µM (titrated, usually from 92.2 µM), for the others: at the top dose activity change, negative = less growth. hit rate 0.21% among 360,000; active = well fitted falling curve with a large enough effect; inconclusive = small, poorly fitted or top-dose-only effect; inactive = no such curve, though single readings can be large or run the other way;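 further: on the % scale 0 is the no-effect control and ±100 the full control effect; nearly all actives have a fitted effect of over 50% in size; the assay follows cell death caused by Vpr and the record does not say whether a fall means rescue or toxicity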
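Fission yeast RE007 carrying one integrated HIV-1 vpr copy, seeded at OD 0.01 in PMG+AL medium with 23 nL pinned compound. Grown 24 h at 30 degrees; viability read by BacTiter-Glo luminescence after 5 min.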
NS1 function inh: blocks influenza NS1 protein function | S. cerevisiae slowed by influenza A NS1, growth recovery by OD600 | Potency, µM (series often up to 46.1 µM), for inactives: at the highest dose activity, positive = more growth | hit rate 0.4% among 270,000 | AID 2326; further: actives are rising curves; nearly all actives have a fitted effect of over 50% in size
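Compounds were scored for reversing the slow growth caused by influenza A NS1 in S. cerevisiae, measured by optical density at 600 nm. Assay medium contained 2% galactose at pH 6.0; NS1-free yeast of the same strain were the positive control.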
Cruzain noTriton: cruzain (T. cruzi) inhibition without detergent; Potency, µM, for the others: max response, negative = inhibition, most hits filed as inhibitors; hit rate 2.3% among 200,000; AID 1476; purified cruzain, Z-FR-AMC fluorescence, no detergent; active means well fitted curve in the direction sought with a large enough effect; inconclusive means small, poorly fitted or top-dose-only effect, or another doubt; inactive means no such curve, though single readings can be large; an effect the other way counts as inactive or inconclusive;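 further: plate controls were enzyme without inhibitor for no effect and buffer without enzyme for full effect; nearly all actives have a fitted effect of over 40% in size; top concentration of the series not given in the record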
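Purified cruzain at 1.5 nM, pre-incubated 15 min with compound at room temperature in 100 mM sodium acetate pH 5.5, 5 mM DTT, 0.00005% Triton X-100. Reaction started with 2 uM Z-FR-AMC; AMC fluorescence increase over 60 s gives rate.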
Starred values were filed as active, the others as inactive; ? = inconclusive; / = not tested or not shown; & = joins results of further samples; [ ] = dose if it differs, or a comment. Unless noted, the call rests on the fitted dose curve; in most records, active means well fitted rising curve with a large enough effect; inconclusive means small, poorly fitted or top-dose-only effect; inactive means no such curve, though single readings can be large or run the other way. Potency means the concentration at half of the fitted maximal effect.

item	SMILES	Marburg entry inh	NS1 function inh	RE007 growth inh	Cruzain inh Det	2A StopGo	SARS PLpro yeast	Lassa entry inh	Cruzain noTriton
1	CCCN(CC(=O)Nc1ccccc1OC)C(=O)c1cc(-c2cccs2)nn1-c1ccccc1	?	/	-16%	/	-22%	1%	-24%	/
2	CCn1c(CSc2nncn2-c2ccc(OC)cc2)nc2cc(S(=O)(=O)N(C)C)ccc21	13%	0%	0%	-0.8%	0%	3%	23%	7%
3	Cc1ccccc1S(=O)(=O)Cc1ccc(C(=O)NCc2cccnc2)o1	?	11%	5%	1.1%	-23%	13%	?	-10%
4	Cc1ccccc1NC(=O)c1cc(-c2ccccc2)n(CCCN2CCOCC2)c1C	-15%[46.1 µM]	0%	4%	/	-15%	0%	?	/
5	CC(C)N1C(=O)c2ccc(C(=O)O)cc2C1=O	4%	5%	19%	5.9%	-13%	-2%	3%	-2%
6	COc1ccc(CCNS(=O)(=O)c2c(C)nc3sccn3c2=O)cc1OC	/	/	/	-2.8%	-9%	/	1%[46.1 µM]	4%
7	O=[N+]([O-])c1cc(CN2CCOCC2)c2cccnc2c1O	-21%[46.1 µM]	/	8%	/	-7%	0%	-29%	/
8	COCCNC(=O)C(c1ccc(Cl)cc1)N(C(=O)CCC(=O)Nc1ccccn1)C1CCCC1 (stereo not given)	-1%	-8%	10%	6.5%	-17%	3%	14%	?
9	Cc1cccc(C)c1NC(=O)c1cccc2c1-c1ccccc1C2=O	10%	2%	7%	1.2%	-27%	-12%	7%	-29%
10	Cc1ccc(NC(=O)c2c(C)oc3ccc(O)c(CN(C)Cc4ccccc4)c23)c(C)c1	?	/	/	-11%	-23%	/	?	-14%
11	O=C(NCc1ccccn1)c1nc(Cn2cc([N+](=O)[O-])cn2)no1	2%[46.1 µM]	-28%	7%	/	8%	0%	-9%[46.1 µM]	/
12	Cc1ccc(Nc2nnc(SCC(=O)NC3CCS(=O)(=O)C3)s2)c(C)c1 (stereo not given)	?	/	5%	/	6%	-1%	-1%	/
13	CCc1nc2ccccc2c(C(=O)Nc2cc(C)ccc2C)c1C	/	4%	-1%	/	-18%	0%	/	/
14	CCc1nnc(NC(=O)C(=O)c2cc(C)n(-c3ccccc3)c2C)s1	0%[46.1 µM]	/	/	-4.0%	?	/	2%[46.1 µM]	-19%
15	CSc1ccc(CCNC(=O)C(C)n2nc(C)c3sc4ccccc4c3c2=O)cc1 (stereo not given)	?	/	/	-15%	0%	/	?	-7%
16	C[C@@H](C(=O)Nc1ccc2c(c1)OCCO2)n1c(=O)[nH]c2ccccc2c1=O	/	0%	14%	/	?	2%	/	/
17	CCN(CC)Cc1cc(Nc2ccnc3cc(Cl)ccc23)ccc1O	/	12%	-1%&-1%[18.4 µM]	-8.3%	-17%	-9%	/	-4%
18	CC(C)N(Cc1nc(-c2ccc(Cl)cc2)no1)C(=O)CN(C)S(=O)(=O)c1ccc(Cl)cc1	-23%	-53%	-1%	-6.9%	-17%	4%	?	?
19	Cc1cc(C(=O)CSc2nc3ccc(Cl)cc3[nH]2)c(C)n1C	-1%	-66%	-10%	-6.8%	8%	-11%	-3%	?
20	O=C(Nc1ccccc1)C1=C(N2CCOCC2)/C(=C/c2cccnc2)CC1	14%	-2%	?	-0.5%	/	-12%	17%	?

Next records:
item	SMILES	Marburg entry inh	NS1 function inh	RE007 growth inh	Cruzain inh Det	2A StopGo	SARS PLpro yeast	Lassa entry inh	Cruzain noTriton
21	COc1ccc(NC(=O)c2ccco2)cc1NC(=O)c1cc(Br)ccc1Cl	/	/	/	-0.5%	10%	/	?	-4%
22	O=c1[nH]c(N/N=C/c2ccccc2)nc2ccccc12	?	-19%	-2%	1.9%	52%[activator]	-4%	?	-13%
23	O=C(/C=C/c1cccs1)Nc1cccnc1	?	-13%	-17%	-8.0%	23%	-11%	12%	1%
24	COC(=O)c1ccc(NC(c2ccc(Cl)cc2)P(=O)(OC)OC)cc1 (stereo not given)	?	-5%	18%	-6.1%	?	-24%	13%	?
25	N#CC(CCN1CCOCC1)(c1ccccc1)c1ccccc1	/	6%	4%	/	-11%	-2%	/	/
26	Cc1ccc(C2=NN3C(C(=O)c4ccccc4)Oc4ccccc4C3C2)cc1 (stereo not given)	-2%	-13%	-6%	3.6%	74%[activator]	?	-10%	?
27	CC(C)Cc1nc(SCC(=O)Nc2ccc(S(N)(=O)=O)cc2)n[nH]1	1%	3%	2%[3.69 µM]	2.1%	-7%	10%	13%	-1%
28	CCc1ccc(-c2cc(C)no2)cc1S(=O)(=O)Nc1ccc(C)cn1	-21%&-21%[46.1 µM]	-8%	2%	-1.5%	44%&74%[activator]	-4%	-3%&-8%[46.1 µM]	-4%
29	COC(=O)c1ccccc1NC(=O)/C=C/C(=O)O	1%	28%	/	-1.0%	-22%	?	-3%	1%
30	CCCC(=O)NC1C2CC3CC(C2)CC1C3 (stereo not given)	0%	10%	15%	-0.8%	/	0%	2%	0%
31	O=C(CCN1C(=O)C2CCCCC2C1=O)N1CCN(S(=O)(=O)c2ccccc2)CC1 (stereo not given)	0%	/	-4%	/	-4%	6%	-1%	/
32	CC(C)(C)n1nnnc1C(c1cccnc1)N1CCN(c2ccccc2)CC1 (stereo not given)	9%	-76%	2%	7.7%	-16%	-23%	6%	1%
33	O=C(C1COc2ccccc2O1)N1CCN(Cc2ccccc2)CC1 (stereo not given)	/	-4%	-25%	/	-6%	5%	/	/
34	CCc1ccc(NC2CC(=O)N(CCc3ccc(OC)c(OC)c3)C2=O)cc1 (stereo not given)	?	/	-11%	/	-24%	-1%	-3%	/
35	CCC(=O)c1coc2ccc(O)cc12	30%	/	0%	/	-18%	/	-8%	/
36	NS(=O)(=O)c1ccc(CCNC(=O)COC(=O)CCN2C(=O)C3CC=CCC3C2=O)cc1 (stereo not given)	18%	/	5%	/	-19%	3%	0%	/
37	Cc1ccccc1NC(=O)CSc1nnc(-c2ccoc2C)n1CCc1ccccc1	-9%	-11%	1%	-3.3%	-24%	6%	-18%	4%
38	O=C(Nc1nc(-c2ccc(Cl)s2)cs1)c1ccncc1	?	-6%	4%	2.3%	/	7%	-21%	-6%
39	CC1Cc2cc(S(=O)(=O)CCC(=O)Nc3ccccc3F)ccc2N1C(=O)C1CC1 (stereo not given)	/	/	/	-2.0%	-9%	/	-11%[46.1 µM]	-5%
40	COc1ccc(CCNS(=O)(=O)c2ccc3c(c2)CCN3C(=O)C2CC2)cc1OC	-15%	-4%	-23%	-1.9%	-13%	1%	10%	22%

(cont.)
item	SMILES	Marburg entry inh	NS1 function inh	RE007 growth inh	Cruzain inh Det	2A StopGo	SARS PLpro yeast	Lassa entry inh	Cruzain noTriton
41	CSc1ccc(CNC(=O)Cc2csc3ccccc23)cc1	4%[46.1 µM]	/	/	-5.1%	16%	/	25%[46.1 µM]	-6%
42	Cc1ccc(NC(=O)COC(=O)Cn2cnc3ccccc32)cc1S(=O)(=O)N(C)C	10%	13%	-10%	-0.3%	25%	9%	7%	2%
43	O=C(Cc1ccc(S(=O)(=O)N2CCCCC2)s1)Nc1ccc(F)cc1F	11%	29%	2%	-5.0%	-14%	5%	-1%	1%
44	Cc1cccc(OCc2nnc(SCC(=O)Nc3ncc(C)s3)o2)c1	3%[46.1 µM]	5%	-2%	/	-9%	-1%	-2%	/
45	Cc1ccc(C)c(NC(=O)C2CCCN(S(=O)(=O)c3c(C)nn(C)c3C)C2)c1 (stereo not given)	-15%[46.1 µM]	-4%	-5%	/	30%	-9%	9%[46.1 µM]	/
46	CCCCn1c(N)c(N(CC(C)C)C(=O)C2CCN(C(=O)c3ccc(F)cc3)CC2)c(=O)[nH]c1=O	-19%[46.1 µM]	-4%	1%	/	-10%	-4%	6%[46.1 µM]	/
47	COC(=O)c1ccc(Nc2nc(C)cc(=O)[nH]2)cc1	-6%[46.1 µM]	10%	-10%	5.2%	18%	1%	3%	-3%
48	Cc1c(C(=O)N(C)CCC#N)oc2ccc(S(=O)(=O)N3CCOCC3)cc12	/	-1%	20%	/	-15%	1%	/	/
49	CCCCCC(=O)NNC(=S)NC(=O)c1cccc([N+](=O)[O-])c1	-2%	-9%	/	-2.1%	-19%	11µM*	19%	-2%
50	Cc1ccc(S(=O)(=O)N2CCN(CC(=O)N/N=C/C=C/c3ccccc3)CC2)cc1	?	-15%	4%	-9.3%	-18%	3%	-7%	-6%
51	Cc1ccc(C(=O)C2=C(O)C(=O)N(Cc3ccccc3)C2c2cccnc2)o1 (stereo not given)	3%	-4%	5%	-0.2%	24%	-1%	1%	-6%
52	CC(=O)N1CCCc2cc(S(=O)(=O)N3CCCC(C(=O)Nc4ccc(C)c(C)c4)C3)ccc21 (stereo not given)	/	/	/	0.1%	-7%	/	21%[46.1 µM]	-1%
53	O=C(c1ccccc1)C1CN(c2ccccc2)CC1c1ccc(Cl)cc1 (stereo not given)	13%	10%	4%	5.7%	-20%	2%	-1%	?
54	O=C(CCC(=O)N1CCN(c2ccc(F)cc2)CC1)c1ccc(Cl)cc1	/	-10%	-10%	/	-17%	-6%	/	/
55	O=C1[C@@H]2[C@@H](CN3CN(c4ccccc4)N=C(c4ccccc4)[C@@]23c2ccccc2)C(=O)N1c1ccccc1	0%	/	40µM*	/	-3%	/	-1%	/
56	CCC(=O)N1c2ccccc2CC1C(=O)NCc1ccccc1Cl (stereo not given)	/	/	/	-1.1%	-7%	/	1%[46.1 µM]	-11%
57	Cc1cc(C)cc(-n2ccnc2SCC(=O)Nc2nc3ccccc3s2)c1	/	/	/	-7.3%	-25%	/	-21%[46.1 µM]	4%
58	Cc1ccc2nc(SCc3nnc(-c4ccccc4)o3)[nH]c2c1	1%	-25%	?	-25%	9%	3%	4%	-18%
59	CC(C)CC(NC(N)=O)C(=O)OCC(=O)Nc1ccc(OC(F)F)cc1 (stereo not given)	7%[46.1 µM]	/	-9%	/	-11%	0%	/	/
60	COc1ccc(-c2cc(=O)oc3cc(OC(C)C(=O)NCc4ccccn4)ccc23)cc1 (stereo not given)	/	-34%	0%	/	-21%	4µM*	/	/

Compound activity: PubChem, National Center for Advancing Translational Sciences (NCATS)
